Bioassay records (PubChem BioAssay)
GLA inh pH 4.5: alpha-galactosidase A (human) inhibition, pH 4.5 | AID 1467 | P06280 | purified enzyme, 4-MU-alpha-Gal fluorescence, pH 4.5 | activity change, negative = inhibition, % at 105 µM | 230,000 tested, under 10 active; inconclusive = small, poorly fitted or top-dose-only inhibition, or a rising curve; inactive = flat fitted curve, though single readings scatter; no compound was filed as active;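 further: 0% = full activity with enzyme and -100% = basal without enzyme; dose as in the result columns while the protocol names 77 µM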
Rango complex inh: inhibitors of Rango-importin beta complex formation; Potency, µM (top dose mostly 92.2 µM), for the others: at the highest dose inhibition of complex formation; AID 540263; 340,000 compounds, 0.031% hits; Rango CFP/YFP FRET sensor + importin beta, 45 min; active = rising FRET ratio curve, often small or poorly fitted; inconclusive = mostly compound fluorescence or quenching in the first reads; inactive = flat curves in all reads;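 further: potency means the concentration at half of the fitted maximal effect; 0% = DMSO wells and 100% = buffer wells lacking importin beta; nearly all actives have a fitted effect of over 15% in size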
Target sequence (Q14974 whole entry, looked up): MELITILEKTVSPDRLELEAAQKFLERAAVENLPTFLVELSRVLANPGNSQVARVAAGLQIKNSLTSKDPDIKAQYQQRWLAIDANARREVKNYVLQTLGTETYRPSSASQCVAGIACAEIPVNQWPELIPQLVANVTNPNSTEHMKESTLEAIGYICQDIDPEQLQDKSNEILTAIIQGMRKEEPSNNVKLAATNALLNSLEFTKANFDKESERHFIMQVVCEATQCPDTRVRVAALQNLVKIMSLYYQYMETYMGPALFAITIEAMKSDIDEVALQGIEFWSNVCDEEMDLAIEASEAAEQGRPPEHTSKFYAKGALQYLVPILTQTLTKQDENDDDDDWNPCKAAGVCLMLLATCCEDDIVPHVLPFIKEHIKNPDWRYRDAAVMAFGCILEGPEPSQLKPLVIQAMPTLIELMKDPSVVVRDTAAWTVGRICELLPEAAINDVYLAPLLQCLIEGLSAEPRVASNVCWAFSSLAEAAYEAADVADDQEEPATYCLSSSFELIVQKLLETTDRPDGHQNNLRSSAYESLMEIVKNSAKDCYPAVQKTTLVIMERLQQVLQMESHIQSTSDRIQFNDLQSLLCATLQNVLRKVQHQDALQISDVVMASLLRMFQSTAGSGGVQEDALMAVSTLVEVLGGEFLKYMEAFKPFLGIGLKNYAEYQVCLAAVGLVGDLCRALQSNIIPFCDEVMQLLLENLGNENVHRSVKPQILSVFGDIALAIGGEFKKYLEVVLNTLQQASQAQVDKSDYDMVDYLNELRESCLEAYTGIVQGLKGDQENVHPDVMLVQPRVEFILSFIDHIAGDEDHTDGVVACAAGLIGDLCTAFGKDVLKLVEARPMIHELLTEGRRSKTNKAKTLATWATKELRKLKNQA
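FRET biosensor (snurportin 1 IBB flanked by EYFP and cerulean), 50 nM, with compound 5 min, then 0.125 microM importin beta in PBS, 1 mM DTT, 0.02% Tween-20, 0.1% BSA. CFP/YFP ratio read after 45 min at room temperature; pre-read flags interference.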
Rango release inh: inhibitors of RanGTP-induced Rango-importin beta complex dissociation | Potency, µM (highest dose often 46.1 µM), without a hit: at the top dose activity change, negative = inhibition | Biochemical FRET Rango-importin beta, RanGTP-induced dissociation | O95149+P62826 | 340,000 compounds, 0.071% hits; active means falling FRET ratio curve, often poorly fitted, with flat reads before Ran was added; inconclusive means other falling curves, or compound fluorescence or quenching; inactive means flat or rising ratio curve;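 further: potency means the concentration at half of the fitted maximal effect; % of control where 0% means no effect; nearly all actives have a fitted effect of over 45% in size; -100% = wells without RanGTP and RCC1; the record marks most hits as doubtful in a second field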
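Rango FRET biosensor (snurportin-1 IBB flanked by N-terminal EYFP and C-terminal CFP10) at 0.1 uM, with 0.25 uM importin beta in PBS, 1mM DTT, 0.02% Tween-20, 0.1% BSA. 0.6 uM Ran, 2mM GTP and 0.2 uM RCC1 were then added for 45 min at room temperature. Inhibition read as loss of FRET rise.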
miR-21 FLuc: raises the signal of a miR-21 reporter; 340,000 tested, under 10 active; HeLa miR-21 FLuc reporter, luciferase, 48 h; Potency, µM (top dose mostly 38.3 µM), for inactives: top-dose reporter change, positive = more light; active = well fitted rising curve with a large enough effect; inconclusive = small, poorly fitted or top-dose-only effect; inactive = no such curve, though single readings can be large or run the other way;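 further: % of control where 0% means no effect; miR-21 action dims this reporter so a rising signal means less miR-21 action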
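HeLa miR-21-FLuc reporter line, endogenous miR-21; 2000 cells/well in DMEM/10% FBS; compound titration up to ~40uM final, 48 h, 37 degree Celsius; luciferase detection reagent, 15 min lysis, CCD luminescence.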
* hit, by the source's call; ? = inconclusive; . = no result given; & = joins results of further samples. Not all compounds are listed; the hit share may differ from the screen's.

Values in the order – Rango release inh, miR-21 FLuc, Rango complex inh, GLA inh pH 4.5
> CCN1CCN(C(=O)C2CCCN(S(=O)(=O)c3cccc4nsnc34)C2)CC1 (configuration not stated)
    2.9%, -2.6%, 3.7%, .
> O=C(Nc1ccc(CN2CCOCC2)cc1)c1ccccc1F
    -0.4%, -44.4%, 0.6%, -29.7
> O=C(Nc1ccc(S(=O)(=O)NC2CCCCC2)cc1)c1ccco1
    -11.2%, -12.1%, -2.2%, -1.4
> CCC(O)C1CCN(C(=O)c2cc(COc3ccc(F)cc3F)on2)CC1 (configuration not stated)
    -9.4%, -11.5%, -0.1%, .
> COc1ccc(/C=N/NC(=O)c2ccc(NC(=O)c3cccc([N+](=O)[O-])c3)cc2)c(OC)c1
    5.5%, 5.3%, -0.6%, -10.7
> CC(=O)N/N=C(\C)c1cccc(C(F)(F)F)c1
    9.8%, -1.7%, -3.6%, 10.1
> CCCN(Cc1nnc(-c2ccccc2Cl)o1)C(=O)c1cccc(S(=O)(=O)N2CCOCC2)c1
    1.1%, -3.1%, -1.3%, .
> CCC(=O)N(Cc1cc(=O)[nH]c2ccccc12)c1ccccc1C
    10.4%, -8.8%, -1.7%, -1.0
> O=c1ccc(Cl)nn1-c1ccccc1
    1.0%, ., 0.8%, .
> CCOCCOC(=O)C1=C(C)NC(=O)NC1c1cc2c(cc1Br)OCO2 (configuration not stated)
    -4.4%, 0.3%, 1.3%, .
> COc1cccc(CNS(=O)(=O)c2c(C(=O)N3CCCCC3)c(C)n(C)c2C)c1
    -5.5%, -1.6%, 3.7%, .
> COc1cccc(COC(=O)Nc2ccccc2F)c1
    -19.8%, -57.0%, -0.6%, .
> CCOC(=O)NC1=NCC(C)(C)S1
    -4.8%, ., -0.2%, .
> CCN(CC(=O)NC1CCS(=O)(=O)C1)C(=O)/C=C/c1cccs1 (configuration not stated)
    6.7%, -0.4%, 2.4%, 7.9
> COc1cc(/C=N/n2nnnc2N)cc(OC)c1OC
    2.4%, 3.1%, -2.4%, 1.7
> O=C(O)CCC(=O)Nc1ccc(N2CCOCC2)cc1
    -14.9%, -1.7%, 2.0%, -4.8
> COc1ccc(C(=O)O/N=C2\C(=O)N(C)c3ccccc32)cc1
    -10.3%, ., 1.9%, .
> O=c1ccc(Oc2nc(N3CCCCC3)nc(N3CCCCC3)n2)n[nH]1
    0.8%, 0.4%, -6.5%, 1.7
> CCN(C(=O)COC(=O)/C=C/c1cccc([N+](=O)[O-])c1)c1ccccc1
    4.1%, -0.1%, -5.7%, 6.2
> Cc1ccc2c(c1)[C@@H](O)C[C@@H](C)N2N=O
    15.1%, -4.3%, 1.3%, 2.3
> Cc1ccc(CNC(=O)c2cc(-c3ccccc3)nn2CC2CC(c3cccnc3)=NO2)cc1 (configuration not stated)
    -9.3%, ., ?, .
> Cc1cc(C=O)c(C)c2c1[nH]c1ccccc12
    0.4%, ., -0.1%, .
> CCc1ccc(-c2cc3c(=O)n(CC(=O)N4CCCCCC4)nc(C)n3n2)cc1
    ?, 1.0%, 2.7%, .
> C=CC[n+]1c(C)csc1Nc1ccc(C(=O)O)cc1
    -13.2%, -17.4%, -0.3%, -0.1
> CC(=O)NS(=O)(=O)c1cccnc1Nc1ccc(Cl)cc1
    -8.7%, -3.9%, 3.4%, 2.5
> COc1ccc(-c2nc3n(n2)C(=O)CC(c2ccco2)S3)cc1 (configuration not stated)
    0.3%, -16.1%, -0.6%, -8.4
> O=C1C2C3C=CC(C3)C2C(=O)N1c1n[nH]c(-c2cccnc2)n1 (configuration not stated)
    -9.8%, 0.5%, 3.0%, -2.4
> O=C(CSc1ncnc2scc(-c3ccccc3)c12)Nc1ccc(C(=O)O)cc1
    -1.0%, -17.5%, -0.1%, 1.1
> COc1ccccc1NC(=O)CSc1nnnn1-c1ccc(C)cc1
    -3.3%, -7.9%, ?, 2.6
> C[C@@]1([C@@H](NC(=O)c2cccs2)c2ccc(-c3ccccc3)cc2)C[C@H]1C1CCCCC1
    0.7%, -7.6%, 0.1%, -9.7
> CCOc1ccccc1NC(=O)Cn1nnc(C(=O)Nc2ccc(C)cc2)c1N
    -2.1%, -5.8%, 0.1%, 3.4
> COc1ccc(C(C(=O)NC2CCCCC2)N(C(=O)c2ccco2)c2ccc(-n3cnnn3)c(C)c2)cc1 (configuration not stated)
    -1.7%, ., -0.2%, .
> Cc1ccc(S(=O)(=O)NCc2cccnc2)cc1
    2.4%, -0.8%, -0.8%, .
> CC(C)c1[nH]c(=O)c(C#N)c2c1CSC(C)(C)C2
    -2.8%, -22.7%, -1.6%, 5.2
> CCN(CC)c1ccc(/C=C2\CCC(/C=C(/C#N)C(=O)Nc3ccccc3F)=C2N2CCOCC2)cc1
    -18.2%, ., ?, .
> COc1ccc(/C=C/c2c(-c3ccc(OC)cc3)oc(=O)c3cc(OC)c(OC)cc23)cc1
    1.9%, ., ?, .
> COC(=O)[C@]1(Cc2ccccc2)N[C@H](CN(C)C(C)=O)[C@@H]2C(=O)N(Cc3ccccc3)C(=O)[C@@H]21
    0.0%, ., -0.4%, .
> O=C(OCc1nc2ccc(Cl)cc2n1CCO)c1ccc2c(c1)OCO2
    -15.4%, -6.2%, -2.0%, -4.0
> COc1ccc2c(c1OC)C(=O)N1C2SC(C)(C)[C@H]1C(=O)NCC(C)C (some centres not stated)
    -9.0%, -1.3%, -0.5%, .
> CC1(C)Cc2c(cnn2-c2ccccc2)C(NC(=O)CCN2CCCC2=O)C1 (configuration not stated)
    ?, 0.0%, -0.7%, .
> CCCN1CCN(CCCNC(=O)Cn2nc(C)n3c(cc4cc(F)ccc43)c2=O)CC1
    -6.1%, -0.4%&-0.9%, -1.1%, .
> Nc1nc(SCc2ccc(Cl)c(Cl)c2)n[nH]1
    -4.6%, -47.7%, -2.6%, -3.3
> CCOC(=O)[C@H]1[C@H]2COc3ccccc3[C@@H]2N2C(=O)CN(Cc3ccc(C)cc3)C(=O)[C@@]12C
    4.7%, ., 6.0%, .
> CCCCC(NC(=O)Cc1c(C)c2cc3c(-c4ccccc4)coc3c(C)c2oc1=O)C(=O)O (configuration not stated)
    -8.9%, -9.1%, -3.3%, .
> Cc1nc2cc(N3CCOCC3)c(NC(=O)C3CC3)cc2c(=O)n1Cc1ccccc1
    3.3%, -19.5%, -0.3%, -2.0
> CC(=O)c1ccc(-c2[nH]c3ccccc3c2CCN2C(=O)c3ccccc3C2=O)cc1
    -24.3%, ., -2.5%, .
> Cc1cc(NC(=O)Cn2nc(-c3ccccc3F)ccc2=O)ccc1-n1cnnn1
    3.6%, 2.3%, -3.2%, 0.7
> COc1cc(NC(=O)C2CCCN2C(=O)OCc2ccccc2)cc(OC)c1 (configuration not stated)
    -8.8%, -11.4%, ?, 2.9
> Brc1ccc(CSc2ccc3nnc(-c4cccnc4)n3n2)cc1
    -10.5%, 4.5%, 6.7%, -1.0
> CC(=O)Nc1ccc(-c2csc(NC(=O)CN3C(=O)NC4(CCCC4)C3=O)n2)cc1
    0.7%, ., 3.1%, .
> CC(=O)c1nnn(-c2cccc(C#N)c2)c1C
    -5.9%, -1.8%, -1.3%, -0.8
> Cc1ccc(C)c(-n2c(-c3ccncc3)n[nH]c2=S)c1
    -8.0%, -4.2%, 0.0%, -4.2
> O=C(COc1ccccc1)Nc1nnc(-c2ccccc2Cl)o1
    -9.6%, ., 1.3%, .
> O=C(NCCc1ccc(F)cc1)N1CCOCC1
    5.6%, -29.5%, 0.3%, -3.2
> C/C(CCCO)=N/Nc1ccc([N+](=O)[O-])cc1[N+](=O)[O-]
    -16.1%, 6.9%, 0.2%, -14.7
> O=C(COC(=O)C1CCN(c2ccc(C(F)(F)F)cn2)CC1)NCCc1ccccc1
    -23.6%, ., 1.2%, .
> COC(=O)COc1cccc(NC(=O)c2ccc(Cl)cc2)c1
    6.3%, 0.3%, 2.0%, -0.4
> Cc1ccc(OCC(=O)NS(=O)(=O)c2ccccc2)cc1
    21.0%, -4.2%, -2.5%, -11.8
> COc1ccccc1CN(C)CC(=O)Nc1ccc(Cl)cc1F
    1.0%, -1.8%, 1.0%, 2.8
> O=C(COc1ccc(/C=N/NC(=O)c2ccncc2)cc1)Nc1cccc([N+](=O)[O-])c1
    -3.6%, -17.6%, 0.0%, .

(cont.)
Values in the order – Rango release inh, miR-21 FLuc, Rango complex inh, GLA inh pH 4.5
> O=C1C2CCCCC2C(=O)N1Cc1ccccc1 (configuration not stated)
    -10.2%, -2.6%, -1.7%, 9.4
> O/N=C/c1cc(Br)cc(Br)c1OCc1ccccc1
    1.9%, -14.4%, 0.7%, 0.5
> O=C(Nc1nnc(-c2ccccc2F)s1)C1CCN(S(=O)(=O)c2ccc(Cl)cc2)CC1
    -1.5%, -10.6%, 2.0%, 2.7
> CCC(C)NCCOCCOc1ccc(C)cc1OC (configuration not stated)
    -9.5%, -7.0%, -0.7%, 3.6
> COc1ccc(OC)c(Nc2cc(C(=O)NCCCN3CCOCC3)c3ccccc3n2)c1
    8.1%, 12.6%, 2.6%, 4.8
> CCc1ccc(N=c2c([N+](=O)[O-])nn(-c3ccccc3)n2O)cc1
    20.6%, -2.4%, 1.1%, 3.0
> Cc1cc(Cl)ccc1NC(=S)NCCC(c1ccccc1)c1ccccc1
    0.7%, 8.1%, ?, 3.0
> CCCCP(=O)(c1ccccn1)c1ccccn1
    -12.7%, -2.5%, -0.2%, -6.7
> O=C(COC(=O)c1cc(=O)c2ccccc2o1)Nc1ccccc1F
    3.9%, ., 1.5%, .
> COc1ccc(OC)c(C(=O)CSc2nnc(-c3cccnc3)n2C)c1
    15.0%, -4.2%, 0.3%, 6.1
> O=C(NC1CCCc2ccccc21)C1CCCC1 (configuration not stated)
    -1.2%, 0.8%, 0.9%, .
> Cc1ccc(-c2nn(-c3ccccc3)cc2C(=O)Nc2cccc(S(=O)(=O)N3CCOCC3)c2)cc1
    -0.1%, -2.7%, -2.8%, -4.4
> CCOC(=O)C1CCCN(c2c(N3CCc4ccccc4C3)c(=O)c2=O)C1 (configuration not stated)
    ., -3.2%, ., -5.4
> Cc1c(C)c2ccc(OCC(=O)N3CCC(C(=O)O)CC3)cc2oc1=O
    0.3%, 5.8%, -2.9%, .
> CC(C)(CNS(=O)(=O)c1ccc(Cl)cc1)N1CCCCC1
    0.1%, -8.7%, ?, -2.9
> CCOCCCN(C(=O)c1snc(C(N)=O)c1N)C(C(=O)NC1CCCC1)c1ccc(O)c(OC)c1 (configuration not stated)
    20.5%, -1.2%, 3.5%, .
> CNC(=O)c1ccc2nc(NC(C)=O)sc2c1
    2.9%, -39.6%, -4.6%, -8.3
> O=C(NCC(c1ccco1)N1CCCC1)c1ccc(-n2cccn2)cc1 (configuration not stated)
    -5.0%, ., -0.5%, .
> CCO[C@H]1OC(C(=O)O)=C[C@@H](c2cn(C(C)=O)c3ccccc23)[C@@H]1CCCO
    2.5%, ., 2.7%, .
> CCNC(=O)CC1SC(=Nc2cccc3ccccc23)N(C)C1=O (configuration not stated)
    12.8%, -3.1%, 0.1%, 2.5
> COCCNC(=O)CN(C(=O)Cn1nnc2ccccc21)c1cc(C)cc(C)c1
    4.9%, 2.0%, -1.4%, 3.5
> CCCNC(=O)c1ccc(N2CCC3(CC2)CC(c2ccccc2)=NO3)c([N+](=O)[O-])c1
    6.6%, 24.3%, -1.8%, .
> C#CCNCCS(=O)(=O)N(Cc1ccc(Br)cc1)[C@@H](C)C(=O)O
    12.7%, ., 0.0%, .
> Cc1ccc(C)c(CN2C(=O)NC3(CCCCCC3)C2=O)c1
    -3.0%, 4.5%, 2.2%, .
> CCOc1ccc2nc(NC(=O)CSc3ccccc3)sc2c1
    -9.4%, -22.9%, 0.0%, 5.4
> CC/C(C)=N/NS(=O)(=O)c1ccc(C)c([N+](=O)[O-])c1
    0.7%, 3.0%, 0.5%, -3.4
> CC1CCN(c2nc3ccccn3c(=O)c2C=O)CC1
    -3.4%, -21.4%, 0.1%, -2.4
